MT1-MMP act inh: MT1-MMP (human) activation inhibition. HT1080 RFP-PRO-GFP cells, GFP/RFP ratio fluorescence, overnight; percent of plate control window, DMSO zero. GFP/RFP ratio change, % at 20 µM. hit rate 0.061% among 360,000. P50281. AID 651647;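 active means GFP/RFP ratio change of at least 30% with cell ATP level not reduced by more than half and red fluorescence within 50% of control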; further: strong numbers were not always called active
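Test system: HT1080 cells expressing an RFP-PRO-GFP fluorescent reporter construct / Compound dosing: single-point 20 µM compound, 1% DMSO / Schedule: cells overnight before dosing, compound overnight, 37 °C, 5% CO2 / Evaluation: GFP/RFP fluorescence ratio / Control set: DMSO and RFP-L50D-GFP cell wells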
CSC inhib: cancer stem cell inhibition. hit rate 1.1% among 300,000. inhibition, % at 7.5 µM. cancer stem cell-like cells viability, luminescence;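 active means mean at 75% or more and at least half the replicates too; inconclusive means mean and replicates disagree; tested in HMLE shEcad cells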;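 further: 0% = median of negative and 100% = median of positive control wells; the first replicate is given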
PABP polyA inh: PABP-poly(A) binding inhibition; inhibition, % at 35 µM; hit rate 1% among 290,000; PABP-poly(A) RNA binding, fluorescence polarization; P11940; AID 2014;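 active means 50% or more with normal probe brightness, or confirmed in later tests; inconclusive means above 50% with abnormal brightness, or retests that disagree; inactive means below 50% or failed in later tests; about a fifth of its hits are not listed in these tables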;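 further: calls also rest on retests at 20 µM and on dose response follow-up; controls were probe without protein and protein plus probe with vehicle; some compounds called inactive have numbers as strong as hits; many hits fall short of the cut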
Target sequence (P11940 whole entry, looked up): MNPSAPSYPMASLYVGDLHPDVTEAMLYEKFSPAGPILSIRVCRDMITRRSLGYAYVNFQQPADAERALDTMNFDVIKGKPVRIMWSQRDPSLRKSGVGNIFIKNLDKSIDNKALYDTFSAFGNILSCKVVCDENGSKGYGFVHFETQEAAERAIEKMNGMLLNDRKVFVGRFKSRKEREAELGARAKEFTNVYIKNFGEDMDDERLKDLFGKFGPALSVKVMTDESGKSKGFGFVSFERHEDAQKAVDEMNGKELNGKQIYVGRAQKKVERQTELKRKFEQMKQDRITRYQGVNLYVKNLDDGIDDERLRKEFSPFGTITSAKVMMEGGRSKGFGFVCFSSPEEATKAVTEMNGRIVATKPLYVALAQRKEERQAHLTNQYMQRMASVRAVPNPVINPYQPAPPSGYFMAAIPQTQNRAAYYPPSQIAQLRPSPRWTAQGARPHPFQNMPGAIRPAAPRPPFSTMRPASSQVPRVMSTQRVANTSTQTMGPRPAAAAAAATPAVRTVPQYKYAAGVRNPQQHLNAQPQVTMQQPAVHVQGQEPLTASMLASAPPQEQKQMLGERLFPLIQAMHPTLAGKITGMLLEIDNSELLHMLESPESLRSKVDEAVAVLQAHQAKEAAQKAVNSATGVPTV
eIF4H FP inh: inhibitors of RNA binding by human eIF4H; Q15056; inhibition, % at 35 µM; eIF4H fluorescence polarization binding assay; hit rate 0.94% among 290,000;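 active means 50% or more with normal probe brightness, or confirmed in later tests; inconclusive means above 50% with abnormal brightness, or retests that disagree; inactive means below 50% or failed in later tests; about a fifth of its hits are not listed in these tables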;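 further: calls also rest on retests at 20 µM and on dose response follow-up; 0% = protein and probe with vehicle and 100% = probe without protein; strong numbers were not always called active; many hits fall short of the cut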
Env fusion inh: HIV envelope-mediated fusion inhibition; HeLa-JRFL Env/CEM21 cell fusion, luciferase; inhibition, % at 12.3 µM; hit rate 1.1% among 360,000; AID 651610;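 active means mean replicate inhibition score of at least 50 and every replicate individually at or above 50; inconclusive means only one of the two criteria met; inactive means mean below 50 and not all replicates reaching 50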;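 further: 0% = plate neutral controls and 100% = maraviroc near 300 nM; one replicate is shown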
Rce1 inh: yeast Ras-converting enzyme inhibition; yeast membranes, quenched prenylated peptide cleavage fluorescence; calls only; hit rate 0.27% among 290,000;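 active means fall in fluorescence gain of 50% or more versus controls, with final raw signal at or below 3038400; inconclusive means same 50% fall but final raw signal above 3038400; inactive means fall in fluorescence gain under 50%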;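 further: plate controls were neutral control wells for no effect and wells lacking membranes for full effect; tested at 10 µM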
Target sequence (Q03530 whole entry, looked up): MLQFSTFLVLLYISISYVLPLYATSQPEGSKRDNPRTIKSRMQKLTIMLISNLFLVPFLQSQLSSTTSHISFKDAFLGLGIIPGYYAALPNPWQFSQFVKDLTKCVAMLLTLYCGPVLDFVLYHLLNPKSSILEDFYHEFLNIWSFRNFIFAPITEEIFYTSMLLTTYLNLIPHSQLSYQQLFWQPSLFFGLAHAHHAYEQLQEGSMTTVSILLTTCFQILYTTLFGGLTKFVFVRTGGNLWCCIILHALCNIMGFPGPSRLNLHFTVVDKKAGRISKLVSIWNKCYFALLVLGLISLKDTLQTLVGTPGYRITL
UUG fidelity: modulators of start codon recognition fidelity in yeast; activity score, % at 18.7 µM; S. cerevisiae UUG-firefly luciferase reporter, luminescence/redox ratio; hit rate 0.13% among 350,000; AID 602363;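 active means replicate mean at a twofold rise or more, about +100% in these data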;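 further: firefly luciferase made from a UUG start codon reports start codon fidelity; reporter light over untreated wells divided by growth signal over untreated wells; some hits fall short of that in this replicate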
eIF4H FP inh retest: further read-out of eIF4H FP inh, marked with its call; inhibition, %; compound at 20 µM; confirmation average;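 mean of two retest wells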
PABP polyA inh retest: also measured in PABP polyA inh; calls as there; inhibition, %; compound at 20 µM; confirmation repeats;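 mean of two retest wells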
MT1-MMP act inh RFP: also measured in MT1-MMP act inh; calls as there; RFP signal change, %; measured here: RFP expression control read;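 0 = vehicle wells; hits needed this value within 50% of zero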
Starred values were filed as active, the others as inactive; i = inactive; u = inconclusive; x = no result given. These rows are one share of the data; count on the stated rates, not on these rows.

SMILES | MT1-MMP act inh | MT1-MMP act inh RFP | CSC inhib | PABP polyA inh | eIF4H FP inh | Env fusion inh | Rce1 inh | UUG fidelity | others
C[C@@]12CCC3[C@@](CC[C@@H]4[C@](C)(C(=O)O)CCC[C@@]34C)(C[C@H]1O)C2 (stereo partly drawn) | -2 | -1 | -10 | 16 | 6 | 2 | i | 0
O=C(CNC(=O)c1cccc(N2C(=O)c3ccccc3C2=O)c1)Nc1ccc(F)c(F)c1 | 10 | 10 | 0 | x | x | 10 | x | -14
Cc1ccccc1NC1(C#N)C(=O)Nc2ccccc21 (stereo not drawn) | -1 | 6 | 3 | -2 | -5 | -54 | i | -26
CC(C)C(=O)Nc1ccc(C(=O)NNC(=O)NC2CCCCC2)cc1 | -2 | -1 | -8 | 4 | -12 | x | i | 0
Cc1[nH]c(=O)c(C#N)c(C)c1CCC(=O)NCc1ccc(Cl)cc1 | -1 | -2 | 12 | -4 | 6 | 2 | i | -8
CC(=O)c1ccc(N2CCN(C(=O)c3cc(-c4ccncc4)nc4ccc(Br)cc34)CC2)cc1 | -3 | -4 | 13 | 5 | 10 | 13 | i | -17
CC(=O)CCS(=O)(=O)c1ccc(Oc2ccc(S(=O)(=O)CCC(C)=O)cc2)cc1 | -1 | -1 | -13 | 8 | 4 | x | i | -6
O=C(NCCS(=O)(=O)N1CCN(c2cccc(Cl)c2)CC1)C1CC1 | 0 | -1 | -3 | x | x | 2 | i | 20
Cc1nc(SCC(=O)NC(C)(C)C)c2c(-c3cccs3)csc2n1 | 0 | -3 | -12 | 5 | -5 | 1 | i | x
CCn1cc(CNC(=O)c2cc(COc3ccc(F)cc3Cl)on2)cn1 | 12 | -6 | 11 | 3 | -8 | -5 | i | -19
O=C(CN1CCCCCC1)Nc1ccc(F)c(F)c1F | 0 | 3 | -18 | 5 | -12 | -26 | i | -7
O=C(NCCN1CCOCC1)c1cc(-c2ccc(Cl)s2)nc2ccccc12 | 3 | 2 | 0 | 7 | 2 | -2 | i | -14
O=C(NCC1CCCO1)C(C(=O)c1ccccc1)n1cc(Cl)ccc1=O (stereo not drawn) | 3 | -3 | -4 | -2 | -3 | -17 | i | -5
O=C(Nc1ccncc1)c1ccc(N2CCCC2=O)cc1 | 6 | -10 | 6 | x | x | -7 | i | -15
O=C(NCc1ccco1)c1cc([N+](=O)[O-])ccc1N1CCOCC1 | -4 | 1 | 5 | -4 | 10 | 2 | i | x
COc1cc2cc(CN(CCN3CCOCC3)C(=O)Nc3ccc(F)cc3)c(=O)[nH]c2cc1OC | 2 | 2 | -4 | -5 | -4 | -1 | i | -8
O=C1NC(=O)C(c2ccccc2)(c2ccc(Cl)cc2Cl)N1 (stereo not drawn) | 12 | -8 | x | x | x | -7 | x | -5
O=C(Nc1cc2cccc([N+](=O)[O-])c2oc1=O)c1cccs1 | 6 | 5 | 11 | -8 | -1 | 9 | x | x
CC(C)CN1CCN(CCCc2ccccc2)C(CCO)C1 (stereo not drawn) | -2 | 1 | 24 | 2 | 2 | -6 | i | 14
O=C(/C=C/c1ccccc1[N+](=O)[O-])c1ccc(F)cc1 | -1 | -3 | 6 | -2 | -8 | -24 | i | -17
Fc1ccc(NC(=S)N2CCN(c3cccc(C(F)(F)F)c3)CC2)cc1 | 4 | 0 | 6 | -11 | -11 | 14 | i | x
CC(C)c1ccc(N2CC(C(=O)Nc3nccs3)CC2=O)cc1 (stereo not drawn) | 3 | 0 | -3 | 10 | 2 | -63 | i | -8
COc1ccccc1NC(=O)N(Cc1ccc2c(c1)OCO2)Cc1nc2ccccc2c(=O)[nH]1 | -4 | -5 | x | -4 | -5 | -67 | i | -7
COc1cccc(Nc2nc3cc(OC)ccc3cc2C#N)c1 | -2 | -3 | 1 | u | 9 | 35 | i | x
Cc1ccc(N=Cc2c(O)c3ccccc3n(C)c2=O)cc1 | -4 | 2 | -6 | -11 | -8 | 19 | i | -18
The results go on:
SMILES | MT1-MMP act inh | MT1-MMP act inh RFP | CSC inhib | PABP polyA inh | eIF4H FP inh | Env fusion inh | Rce1 inh | UUG fidelity | others
CCOC(=O)Cn1cnc2c(cnn2-c2ccccc2)c1=O | -1 | -4 | x | -13 | -1 | 10 | i | 5
CCOC(=O)Nc1ccc(OC)cc1S(=O)(=O)N1CCCCC1 | 17 | 10 | x | 1 | 2 | x | i | -12
CCOc1cc(C)c(C(C)C)cc1S(=O)(=O)NCc1ccccn1 | 2 | -1 | -26 | 5 | 6 | -37 | i | -16
Cc1nc(SCC(=O)NC2CCS(=O)(=O)C2)c2c3c(sc2n1)CCCC3 (stereo not drawn) | -3 | -2 | x | x | x | -12 | x | -7
CC(C)CC(=O)N(Cc1ccc(F)cc1)C1CCS(=O)(=O)C1 (stereo not drawn) | -1 | -1 | -10 | -10 | -5 | 21 | i | 1
CCn1c(SCC(=O)Nc2ccc(C(=O)OC)cc2)nnc1-c1cccs1 | -2 | 0 | -1 | -6 | -3 | -41 | i | -19
CCC(C)NC(=O)/C=C1\Sc2ccccc2NC1=O (stereo not drawn) | 5 | 5 | -1 | -14 | -1 | -111 | i | 6
COc1ccc(CCNC(=O)CCc2ccc(S(=O)(=O)NCC(C)C)cc2)cc1OC | 1 | 1 | -12 | 2 | -2 | -5 | i | x
CC1(C)Cc2c(sc(/N=C/N3CCCCCC3)c2C#N)C(C)(C)N1 | 2 | 3 | x | 12 | 3 | -9 | i | x
Cc1cc(-c2ccc(C(C)C)c(S(=O)(=O)N3CCC(C)CC3)c2)on1 | -2 | -6 | 49 | 6 | 10 | 28 | i | -14
COc1ccc(S(=O)(=O)N2CCN(CCOc3ccc(Br)cc3)CC2)cc1OC | 7 | -28 | x | x | x | 9 | x | 2
COc1ccc(Br)cc1CNc1ccc2[nH]c(=O)[nH]c2c1 | 0 | -5 | -3 | u | u | -17 | i | x
Cc1[nH]c2ccccc2c1C(c1ccncc1)N1CCN(c2ccc(F)cc2)CC1 (stereo not drawn) | 0 | -3 | -4 | -7 | -8 | 3 | i | -25
NC(=O)c1cc([N+](=O)[O-])ccc1NCc1cccc(N)c1 | 3 | 1 | -19 | x | x | -24 | x | -13
CC1CN(C(=O)c2ccc([N+](=O)[O-])s2)CC(C)O1 (stereo not drawn) | 1 | -1 | 1 | x | x | x | x | -4
Cc1cc(C)n2nc(C(=O)N3CCCC(Nc4ccc(C(C)C)cc4)C3)cc2n1 (stereo not drawn) | 1 | 2 | -5 | 4 | -6 | 5 | i | -3
C=CCSc1nc2sc3c(c2c(=O)n1CC=C)CCc1ccccc1-3 | -2 | -2 | 5 | 2 | 1 | 0 | i | -8
Cc1ccccc1-n1ncc2c(SCC(=O)NCc3cccs3)ncnc21 | -7 | -16 | 47 | -1 | 0 | x | i | x
O=C(Cc1c(F)c(F)c(F)c(F)c1F)Nc1nc(-c2ccccc2)cs1 | 4 | -4 | 83* | 1 | 0 | -12 | i | -6
CN(C1CCCCC1)S(=O)(=O)c1ccc(C(=O)N2CCN(c3nc4ccccc4s3)CC2)cc1 | 0 | -21 | 11 | 92 | -1 | 34 | i | -1 | eIF4H FP inh retest=4;PABP polyA inh retest=-3
CCc1ccc(C(=O)CSc2nnc(C)c(=O)[nH]2)cc1 | -2 | 2 | -23 | -7 | 3 | x | i | -13
Cc1cc2oc(C(=O)N(Cc3ccccc3)C3CCS(=O)(=O)C3)cc(=O)c2cc1Cl (stereo not drawn) | 18 | -4 | -8 | -8 | -10 | -50 | i | 2
CC(=O)c1c(C)cc(C)c(CSc2ccccn2)c1C | -6 | -2 | -1 | 9 | 2 | -9 | i | -8
O=C(NCc1nc(-c2ccc(C(F)(F)F)cc2)no1)Nc1ccc(OC(F)(F)F)cc1 | 1 | -4 | 109* | -10 | 2 | 11 | i | -2
CC(C)Oc1cc(N)c(Cl)cc1Cl | 1 | 3 | -3 | 12 | -12 | -26 | i | x

The list goes on, starting with the last three of the part before.
SMILES | MT1-MMP act inh | MT1-MMP act inh RFP | CSC inhib | PABP polyA inh | eIF4H FP inh | Env fusion inh | Rce1 inh | UUG fidelity | others
CC(=O)c1c(C)cc(C)c(CSc2ccccn2)c1C | -6 | -2 | -1 | 9 | 2 | -9 | i | -8
O=C(NCc1nc(-c2ccc(C(F)(F)F)cc2)no1)Nc1ccc(OC(F)(F)F)cc1 | 1 | -4 | 109* | -10 | 2 | 11 | i | -2
CC(C)Oc1cc(N)c(Cl)cc1Cl | 1 | 3 | -3 | 12 | -12 | -26 | i | x
N#CC1=C(N)OC2=C(C(=O)CCC2)C1c1ccoc1 (stereo not drawn) | 0 | 2 | -11 | 6 | 6 | 9 | i | x
CCOc1ccc2[nH]c3nc(SCC(=O)NCC4CCCO4)nnc3c2c1 (stereo not drawn) | -1 | -7 | -8 | 16 | -3 | 0 | i | -6
CN(C(=O)c1cccc(NC(=O)Cc2cccc(NC(=O)C3CCCN(C(=O)c4ccccc4)C3)c2)c1)C1CCC1 (stereo not drawn) | -2 | -2 | x | x | x | -10 | x | -13
O=C(/C=C/c1ccc2c(c1)OCCO2)c1ccc(O)cc1 | -9 | -6 | 19 | 11 | 2 | -124 | i | -36
Cc1nn(C)cc1CNCc1ccc(OCC(O)CN(C)Cc2ccccc2)cc1 (stereo not drawn) | 0 | 2 | -7 | 22 | 1 | 16 | i | 9
O=S(=O)(Nc1ccccc1N1CCOCC1)c1cccs1 | 1 | -1 | 11 | x | x | -5 | x | -13
C#CCOCCOCCOCCNc1nc(N2CCN(C(=O)C([C@@H](C)CC)n3cc(C(N)COC(=O)C(F)(F)F)nn3)CC2)nc(N2CCN(C(=O)[C@H](Cc3ccc(O)cc3)n3cc(C(N)[C@H](C)CC)nn3)CC2)n1 (stereo partly drawn) | x | x | -11 | x | x | 17 | i | x
O=C(NC1CC2CCCC(C1)N2S(=O)(=O)c1ccccc1)C1CCCCC1 (stereo not drawn) | -1 | -6 | x | 14 | -4 | x | i | -10
Cc1cc(C)cc(NC(=S)NN)c1 | 1 | 0 | -16 | -3 | -4 | -9 | i | -23
COC(=O)c1ccc2[nH]c(C(C)(C)O)c(C)c2c1 | 6 | 0 | 0 | -8 | 1 | -40 | i | -7
Cc1ccc2nc(N(CCCN(C)C)C(=O)c3ccc4ncsc4c3)sc2c1 | -2 | 2 | -8 | 2 | 0 | -31 | i | -21
COc1ccccc1OCC(=O)Nc1cc(S(=O)(=O)N2CCOCC2)ccc1N1CCCCC1 | -4 | -5 | 1 | x | x | 5 | x | -13
COc1ccc(NS(=O)(=O)c2ccc(OCC(=O)N3CCOCC3)cc2)cc1Cl | 0 | -14 | -13 | -1 | 0 | 26 | i | 0
CCOC(=O)c1sc(NC(=O)c2c(CC)noc2C)nc1C | -3 | -4 | x | x | x | 4 | x | 6
COc1ccc(NC(=S)N2CCN(S(=O)(=O)c3ccc(F)cc3)CC2)cc1OC | -3 | 1 | -6 | -8 | -10 | 0 | i | -24
Cc1ccc(C(=O)NCC(=O)Nc2ccc(Cl)cc2)s1 | 1 | -1 | -3 | x | x | 2 | x | -21
Cc1ccc(S(=O)(=O)N2CCN(Cc3cc(C(C)C)ccc3O)CC2)cc1 | -8 | -10 | 18 | -2 | 7 | -95 | x | -2
Fc1ccccc1N1CCN(C(c2ccncc2)c2nnnn2C2CCCC2)CC1 (stereo not drawn) | -7 | 0 | -4 | 4 | -9 | x | i | -6

Bioassay records deposited in PubChem by several laboratories.
